VACV Venus inh – qHTS for Stage-Specific Inhibitors of Vaccinia Orthopoxvirus: Venus Reporter Primary qHTS; actives 0.46% (n = 330,000); Vaccinia virus Venus reporter expression, fluorescence; AID 720580, 2013; Potency, µM (titrated, usually from 36.5 µM), inactives show at the highest dose activity change, negative = inhibition, actives largely listed as inhibitors; active means well fitted inhibition curve with a large enough effect; inconclusive means small, poorly fitted or top-dose-only effect; inactive means no such curve, though single readings can be large or run the other way; tested in A549 cells; note: nearly all actives have a fitted effect of over 30% in size; inactives centre near -10
VACV mCherry inh – qHTS for Stage-Specific Inhibitors of Vaccinia Orthopoxvirus: mCherry Reporter Primary qHTS. Vaccinia virus mCherry reporter infection, fluorescence; about a quarter of the inactives have no number. Potency, µM (top dose mostly 36.5 µM), for the others: at the highest dose activity change, negative = inhibition, usual class: inhibitors. actives 0.63% (n = 310,000); active = well fitted inhibition curve with a large enough effect; inconclusive = small, poorly fitted or top-dose-only effect; inactive = no such curve, though single readings can be large or run the other way; tested in A549 cells; note: nearly all actives have a fitted effect of over 35% in size; inactives centre near -10
* marks the source's active call; other numbers are inactive results; i = inactive; ? = inconclusive; / = no result given; [ ] = another dose, or the depositor's remark. % is set by controls: 0 for no effect and ±100 for the full control effect; potency is the fitted concentration of half-maximal effect.

The opening 2 entries, ahead of the listing:
SMILES	VACV Venus inh	VACV mCherry inh
Cc1cc(C)nc(SCC(=O)N(C)CC(=O)Nc2ccccc2Br)n1	-13%	-21%
C/C=C/c1ccc(OCCSc2nc(C)cc(=O)[nH]2)c(OC)c1	-11%	i

The list itself, previewed entries included:
SMILES	VACV Venus inh	VACV mCherry inh
Cc1cc(C)nc(SCC(=O)N(C)CC(=O)Nc2ccccc2Br)n1	-13%	-21%
C/C=C/c1ccc(OCCSc2nc(C)cc(=O)[nH]2)c(OC)c1	-11%	i
Cc1ccc(C)c(N2CCN(C(=O)CNS(=O)(=O)c3cccs3)CC2)c1	-15%	-8%
COc1cc(NS(=O)(=O)c2ccc(-c3cc(C)no3)cc2)cc(OC)c1	?	?
CCOCCn1c(=O)c2c(nc3n2CCCN3Cc2ccccc2)n(C)c1=O	-14%	-14%
C[C@H](CO)N1C[C@H](C)[C@@H](CN(C)S(=O)(=O)c2cn(C)cn2)Oc2ccc(NS(=O)(=O)c3ccccc3)cc2C1=O	-12%	-11%
CN(C)c1ccc(CNn2cnnc2SCc2ccc(F)cc2)cc1	-16%	-6%
NC(=O)CSc1cn(CCNC(=O)c2cccs2)c2ccccc12	0%	i
Cc1ccc(NC(=O)CN(C)S(=O)(=O)c2ccc3c(c2)n(C)c(=O)c(=O)n3C)cc1C	-10%	-2%
Cc1ccc(C)n1-c1ccc(C(=O)NN)cc1	1%	-17%
COc1ccc(N(CC(=O)Nc2cccc(SC)c2)S(C)(=O)=O)cc1	-20%	/
CCCCn1c(Cn2nc(C(=O)O)c3ccccc3c2=O)nc2cc(S(N)(=O)=O)ccc21	-17%	i
Cc1cc(C)n(CCCNC(=O)C(C)(C)Oc2ccc(Cl)cc2)n1	-7%	i
O=C(CS(=O)(=O)c1ccc(Cl)cc1)N1CCN(c2ccccc2)CC1	-10%	-6%
COc1ccc(C(=O)N/C(=C\c2ccco2)C(=O)OCc2ccco2)cc1	-2%	-5%
CCOc1ccc(-n2c(Cc3ccccc3)nnc2SCc2nc(-c3ccccc3OC)no2)cc1	-15%	-14%
COc1cccc(CNC(=O)Cn2nc3c(cc2=O)CCCC3)c1OC	-11%	-11%
CC(=O)NCCc1ccc(S(=O)(=O)Nc2ccc3c(c2)OCCO3)cc1	18%	0%
CCOC(=O)N1CCN(CC(O)COCC2=CCC3CC2C3(C)C)CC1 (configuration not stated)	-29%	/
CCNc1nc2[nH]c(=O)c3c(c2s1)OC(N)=C(C#N)C3c1cccs1 (configuration not stated)	-5%	i
Cc1cc(C)cc(-n2c(C)cc(/C=N/NC(=O)c3ccncc3)c2C)c1	-13%	-15%
O=C(O)Cc1ccc(NC(=O)c2cnccn2)cc1	-1%	-9%
CCC(=O)Nc1ccc(S(=O)(=O)N2CCc3ccccc3C2)cc1	-19%	?
FC(F)(F)c1nc2ccccc2n2c(-c3ccc(Cl)cc3Cl)nnc12	-17%	/
COc1ccc(/C=N/Nc2ccc([N+](=O)[O-])cc2S(=O)(=O)N2CCN(C)CC2)cc1	-2%	-11%
Cc1cc(NC(=O)CCC(=O)N(c2ccccc2)C(C(=O)NC2CCCC2)c2ccccc2C)no1 (configuration not stated)	-6%	-15%
O=S(=O)(CCc1ccncc1)C1Cc2cccc3cccc1c23 (configuration not stated)	-15%	-18%
O=C(COC(=O)COc1cc(Cl)c(Cl)cc1Cl)NC1CC1	-9%	-2%
NC(=S)NN=Cc1ccc(-c2ccc(S(=O)(=O)Nc3ncccn3)cc2)o1	-8%	i
COc1ccc(C2=NO[C@H]3C[C@](C(=O)NC(C)C)(S(=O)(=O)c4ccccc4)C[C@@H]23)cc1	-9%	i

3 entries from above in another layout.
canonical_smiles | VACV Venus inh | VACV mCherry inh
CCOCCn1c(=O)c2c(nc3n2CCCN3Cc2ccccc2)n(C)c1=O | -14% | -14%
C[C@H](CO)N1C[C@H](C)[C@@H](CN(C)S(=O)(=O)c2cn(C)cn2)Oc2ccc(NS(=O)(=O)c3ccccc3)cc2C1=O | -12% | -11%
CN(C)c1ccc(CNn2cnnc2SCc2ccc(F)cc2)cc1 | -16% | -6%

(next part)
SMILES	VACV Venus inh	VACV mCherry inh
Cc1ccc(/C=C/C(=O)NCc2cccs2)c(C)c1	-14%	-17%
Cc1ccc(NC(=O)CN(C)C(=O)c2ccccn2)cc1	-6%	-11%
COc1cc(/C=C(\C#N)c2nc3ccccc3[nH]2)ccc1Oc1ccc([N+](=O)[O-])cn1	-16%	?
COc1ccc(C(=O)NNC(=O)c2ccncc2)cc1[N+](=O)[O-]	-14%	i
CCCCSCCCNC(=O)Nc1ccc(C)c(C)c1	-3%	-2%
CCCCn1nnnc1C(C1CC1)N1CCC2(CC1)C(=O)NCN2c1ccccc1 (configuration not stated)	-15%	2%
COc1cc(OC)c(C2SCCCS2)cc1OC	-18%	-1%
COCCNC(=O)c1ccccc1NC(=O)c1ccccc1N(C)S(C)(=O)=O	2%	-5%
Cc1cccc(N2CCN(C(=O)c3cc4c(=O)[nH]c5ccccc5c4n3C)CC2)c1C	-8%	-9%
CCC1=C(c2ccc(C)cc2)S(=O)(=O)N=C1N1CCC(C(=O)Nc2ccccc2F)CC1	-19%	-22%
O=C(O)COc1ccc2occ(C(=O)c3ccccc3)c2c1	-8%	i
O=C(NCc1ccncc1)C(=O)NCC1OCCN1S(=O)(=O)c1ccc(Cl)cc1 (configuration not stated)	-10%	-15%
CC(=O)Nc1ccc(S(=O)(=O)NCCc2ccc3c(c2)OCCO3)cc1	1%	-3%
N#CCCCC1(CCCC#N)OCCO1	-3%	-15%
CC1(C)N=C2C(=[N+]1[O-])CCC/C2=N\O	-5%	-6%
Cc1ccc(S(=O)(=O)Nc2cccc3ncccc23)cc1	-8%	-15%
O=C(N/N=C/c1ccccc1F)c1csc2c1CCCC2	-20%	i
O=C(O)c1ccc(-n2cccn2)c([N+](=O)[O-])c1	-12%	i
CC1(C)COC2(OC1)C(=O)N(CN1CCOCC1)c1ccccc12	-4%	3%
CC1(C)Cc2c(C#N)c(SCC(=O)O)nc(N3CCOCC3)c2CO1	-19%[7.34 µM]	i[7.34 µM]
Cc1ccn2c(NCc3ccccc3)c(-c3cccs3)nc2c1	-7%	?
O=C(c1cc(-c2ccc(Cl)cc2)nc2ccccc12)N1CCC1	-15%	i
CCOc1ccc(C(=O)N2CCN(Cc3ccccc3)CC2)cc1OCC	-15%	-19%
Cc1ccc(S(=O)(=O)/N=C(/Nc2cccc(C(=O)O)c2)c2ccccc2)cc1	2%	-9%
COC(=O)C[C@@H]1C[C@@H]2c3cc(NC(=O)Cc4ccncc4)ccc3O[C@@H]2[C@@H](CO)O1	-3%	-7%
COCCNC(=O)c1ccc(CS(=O)(=O)c2ccccc2C)o1	-21%	i
Cc1ccc(CN2C(=O)CN(C3CCCCCC3)C(=O)C2c2ccc(F)cc2)cc1 (configuration not stated)	-2%	4%
COc1ccc(-c2cc3c(c4c2ccn4C)C2CCC3C2)cc1OC (configuration not stated)	-12%	15%
COc1ccc(CNC(=O)Cc2csc3ccccc23)cc1OC	-15%	-9%
COc1ccccc1/C=C/C=N/Nc1cccc(C(=O)O)c1	-24%	?
Cc1ccc2c(c1)C(c1ccccc1)N(C(=O)c1ccc(F)cc1)CC(=O)N2 (configuration not stated)	-10%	-5%
O=C(O)C1CCN(c2ccc([N+](=O)[O-])cc2[N+](=O)[O-])CC1	-7%	-1%
C=CCNC(=S)N/N=C/c1ccc(C)c([N+](=O)[O-])c1	-24%	-12%
COCCn1c(SCC(=O)Nc2sccc2C(N)=O)nnc1-c1ccncc1	5%	-15%
Cc1ccc(/C=C2\SC(=S)N(CCCC(=O)Nc3nccs3)C2=O)cc1	-5%	-6%
CNC(C)C(=O)NC(C(=O)N1CCCC1C(=O)Nc1ccc2[nH]ccc2c1)C(C)C (configuration not stated)	-1%	10%
O=C(CN=C1NS(=O)(=O)c2ccccc21)OCC(=O)c1cc(F)ccc1F	-12%	-24%
COc1ccccc1CNC(=O)CSc1ncc2c(n1)-c1ccccc1N(Cc1ccc(C)cc1)S2(=O)=O	-12%	-15%
CC(C)=CC(=O)OCC(=O)Nc1ccc(F)cc1Cl	1%	/
COc1ccc(NC(=O)CCS(=O)(=O)c2cc(Br)cc3c2N(C(C)=O)CC3)c(OC)c1	-7%	1%

Compounds shown so far containing bromine:
SMILES	VACV Venus inh	VACV mCherry inh
Cc1cc(C)nc(SCC(=O)N(C)CC(=O)Nc2ccccc2Br)n1	-13%	-21%
COc1ccc(NC(=O)CCS(=O)(=O)c2cc(Br)cc3c2N(C(C)=O)CC3)c(OC)c1	-7%	1%

Other results:
SMILES	VACV Venus inh	VACV mCherry inh
COC(=O)Cc1c(C)nc2nc(-c3ccc(OC)cc3)[nH]n2c1=O	-7%	-20%
N#CC12CNCC1CN=N2 (configuration not stated)	-8%	i
CCOc1cc(C(c2c(C)[nH][nH]c2=O)c2c(C)[nH][nH]c2=O)cc(Br)c1OC	-14%	i
O=C(Cn1[nH]c(=O)c2ccccc2c1=O)Nc1ccc2c(c1)CCC2	?	-3%
CC(Cl)C(=O)c1c[nH]c2ccccc12 (configuration not stated)	-14%	-27%
COC(=O)C1=C(c2ccc(F)cc2OCc2ccccc2)C[C@@H]2CC[C@H]1N2C(=O)NCc1ccc(C(C)(C)C)cc1	?	-10%
COc1ccccc1Nc1ccc2c(O)cc(S(=O)(=O)O)cc2c1	-19%	-24%
O=C(CN1CCN(Cc2cccc(Cl)c2)C1=O)NCc1ccccn1	-10%	i
CC1=CCC2C(=O)N(c3ccc(S(N)(=O)=O)cc3)C(=O)C2C1 (configuration not stated)	-15%	-12%
CN(c1ccc(OCC(=O)Nc2ccc(S(N)(=O)=O)cc2)cc1)S(=O)(=O)c1ccc(F)cc1	-29%	-11%
COc1ccc(C(=O)NCC(=O)OCC(=O)NC2CCCC2)cc1	-13%	i
CCn1c(C(O)c2cc(OC)ccc2OC)nc2ccccc21 (configuration not stated)	-14%	-26%
CC1C(=O)NN=C1C(=O)N/N=C\c1ccc(O)cc1O (configuration not stated)	-9%	i
NC(=O)C1(NC(=O)[C@@H]2CC3(CC(c4cccc(NC(=O)[C@@H]5CCC(=O)N5)c4)=NO3)CN2C(=O)c2cnccn2)CC1 (some centres not stated)	-5%	i
c1coc(CNc2c3c(nc4ncnn24)CCCC3)c1	-3%	i
CN(c1ccc(OCC(=O)OCC(=O)Nc2ccccc2)cc1)S(=O)(=O)c1ccc(F)cc1	-9%	-5%
CCOC(=O)C1CCN(C(=O)Cn2ncc3c4ccccc4n(Cc4ccccc4F)c3c2=O)CC1	-13%	0%
CCOC(=O)C1(CCCc2ccccc2)CCN(C(=O)CCN2CCCCC2=O)CC1	-4%	i
COc1ccccc1CNC(=O)C1CCCN1S(=O)(=O)c1cccc2cccnc12 (configuration not stated)	-11%	i
O=C(O)COc1ccc(/C=N/n2c(COc3ccccc3)nc3ccccc3c2=O)cc1	-11%	21%
O=[N+]([O-])c1ccc(O)c(/C=N/Nc2nc3ccccc3[nH]2)c1	?	8.9µM*
CCCCCCCOc1ccc(C2CC(=O)N(C)C2=O)cc1 (configuration not stated)	-18%	-21%
O=C(CCS(=O)(=O)c1ccc(Cl)cc1)Nc1ccc(F)cc1	-12%	-15%
Cc1cccc(Nc2ncnc(N)c2[N+](=O)[O-])n1	1%	-18%
C/C(=N\NC(=O)c1ccc(C)cc1C)c1ccc2c(c1)OCO2	-18%	-25%
CC1=CCC2C(=O)N(c3cccc(C(=O)Nc4ccc(Cl)cc4)c3)C(=O)C2C1 (configuration not stated)	-25%	i
CC(=O)CCSc1ncnc2sc(-c3ccccc3)cc12	-28%	-29%
COc1cccc(NC(=O)[C@H](C)NC(=O)C2CCN(S(=O)(=O)c3ccc(C)cc3)CC2)c1	-9%	-21%
O=C(COc1ccc(Cl)cc1)NCC(=O)N1CCC2(CC1)NCCc1[nH]cnc12	-5%	-2%
C/C(=N\NC(=O)c1cc(Br)ccc1O)c1ccccn1	-6%	?

Copied from the list:
VACV Venus inh with `Cc1ccc(CN2C(=O)CN(C3CCCCCC3)C(=O)C2c2ccc(F)cc2)cc1` (configuration not stated) is entered as -2%
VACV Venus inh with `O=C(c1cc(-c2ccc(Cl)cc2)nc2ccccc12)N1CCC1` is entered as -15%
VACV mCherry inh with `COc1ccc(CNC(=O)Cc2csc3ccccc23)cc1OC` is entered as -9%
VACV Venus inh with `N#CC12CNCC1CN=N2` (configuration not stated) is entered as -8%
VACV Venus inh with `CCC(=O)Nc1ccc(S(=O)(=O)N2CCc3ccccc3C2)cc1` is entered as -19%

(further entries)
SMILES	VACV Venus inh	VACV mCherry inh
Cc1cc(NC(=O)C2CCCN2C(=O)Nc2cccc(Cl)c2)ccc1-n1cnnn1 (configuration not stated)	0%	i
O=C(NCc1ccc(F)cc1F)c1cc(COc2c(F)cccc2F)on1	-8%	i
COc1ccc(/C=c2\[nH]c(=O)/c(=C/c3ccc(OC)cc3)[nH]c2=O)cc1	-2%	i
O=C1C2CC=C(Cl)CC2C(=O)N1CCc1ccccc1 (configuration not stated)	-10%	-18%
COc1ccccc1CN1CCC(n2nccc2NC(=O)CCOc2ccccc2)CC1	-29%	?
O=C(NC(NC(=S)Nc1cccc(Cl)c1)C(Cl)(Cl)Cl)OCc1ccccc1 (configuration not stated)	?	?
Cc1ccc([C@H]2C[C@H](O)[C@@H](n3cc(C4CC4)nn3)CN2C(=O)C2CCCCC2)cc1	-5%	i
COCCn1c(C)cc(C(=O)CSc2nnc3ccccn23)c1C	-13%	-13%
CC(=O)c1c(C)oc2ccc(NS(=O)(=O)c3ccc(F)cc3C)cc12	-2%	-7%
CC(C)(C)c1ccc(C(=O)NC(=S)N2CCCC2)cc1	-22%	-21%

Screens as filed in PubChem BioAssay.

Rows were taken by chance. About 0.88% of those tested had a hit in this group.
